# High-throughput results from PubChem BioAssay.
# VACV mCherry inh: vaccinia inhibition (mCherry reporter). Vaccinia virus mCherry reporter infection, fluorescence; about a quarter of the inactives have no number. Potency, µM (titrated, usually from 36.5 µM), without a hit: at the highest dose activity change, negative = inhibition, usual class: inhibitors. 310,000 compounds, 0.63% hits. AID 720579; active = well fitted inhibition curve with a large enough effect; inconclusive = small, poorly fitted or top-dose-only effect; inactive = no such curve, though single readings can be large or run the other way; tested in A549 cells; note: nearly all actives have a fitted effect of over 35% in size; inactives centre near -10
# Vaccinia Venus: vaccinia inhibition (Venus reporter); Vaccinia virus Venus reporter expression, fluorescence; Potency, µM (series often up to 36.5 µM), for the others: at the top dose activity change, negative = inhibition, actives largely listed as inhibitors; 330,000 compounds, 0.46% hits; AID 720580; active means well fitted inhibition curve with a large enough effect; inconclusive means small, poorly fitted or top-dose-only effect; inactive means no such curve, though single readings can be large or run the other way; tested in A549 cells; note: nearly all actives have a fitted effect of over 30% in size; inactives centre near -10
# Starred values were filed as active, the others as inactive; i = inactive; ? = inconclusive; . = not tested or not shown; & = joins results of further samples; [ ] = remark or other dose. % is set by controls: 0 for no effect and ±100 for the full control effect; potency is the fitted concentration of half-maximal effect.
SMILES,VACV mCherry inh,Vaccinia Venus
CCN(C(=O)CSc1nc2ccc([N+](=O)[O-])cc2s1)C1CCS(=O)(=O)C1 (configuration not stated),-4%,-19%
CC[C@@H](C)[C@H](NC(=O)OCc1ccccc1)c1nnc([C@@H](NC(=O)OCc2ccccc2)[C@@H](C)CC)o1,i,-18%
C=CCNc1nc(Cl)nc(Nc2cc(Cl)ccc2OC)n1,-14%,-4%
CCC1CCCCN1CCCNC(=O)C1CCN(S(=O)(=O)N2CCC3(CC2)OCCO3)CC1 (configuration not stated),i[7.34 µM],-4%[7.34 µM]
S=C(c1cn(Cc2ccccc2)c2ccccc12)N1CCOCC1,-5%,9%
O=S(=O)(NC1CC1)c1ccc(S(=O)(=O)N2CCC3(CC2)OCCO3)cc1,-10%,-14%
Cc1nn(C(=O)c2ccco2)c(C)c1CN1C(=O)c2ccccc2C1=O,-1%,-6%
Cc1cc2cc(C#N)c(NCCNC(=S)NCCCN3CCOCC3)nc2cc1C,-29%,-30%
COc1cc(C(Nc2ccc(S(=O)(=O)NCC3CCCO3)cc2)C(=O)NC(C)(C)C)cc(OC)c1OC (configuration not stated),-1%,8%
COc1c2c(nc3occc13)C(CC=C(C)C)(OC)C(O)CC2 (configuration not stated),-6%,4%
O=C(Nc1cccc(-c2csc(Nc3ccccc3)n2)c1)c1cc([N+](=O)[O-])cc(C(F)(F)F)c1,-2%,-26%
CC(=O)N1CCN(C(=S)c2cccc([N+](=O)[O-])c2)CC1,-16%,-6%
Cc1ccc(O)c(NC(=O)c2cc(-c3ccco3)on2)c1,?,?
COc1cc(/C=N\NC(=O)c2ccc(C)nc2)ccc1OC(=O)c1cccc(F)c1,-4%,2%
CCOC(=S)N/C(=N\S(C)(=O)=O)c1ccccc1,-9%,-11%
Cc1cc(-c2cc(-c3ccccc3)on2)nc(NCC2CC2)n1,i,-11%
CCN(c1ccccc1)S(=O)(=O)c1ccc(C(=O)N(C)CCc2ccc(OC)c(OC)c2)cc1,6%,-6%
CCC12CN3CC(CC)(CN(C1)C3c1ccccn1)C2=O (configuration not stated),1%,-9%
Cc1ccc(C)c(OCCCC(=O)O)c1,-12%,-12%
COc1ccc2cc(CCNC(=O)C(C)C)c(=O)[nH]c2c1,i,-8%
C[C@@H]1CCCCO[C@H](CN(C)C(=O)Nc2cccc3ccccc23)[C@@H](C)CN([C@H](C)CO)C(=O)c2cc(NC(=O)c3ccccc3)ccc2O1,i,-21%
COC(=O)[C@H](Cc1ccccc1)NC(=O)/C=C/[C@H]1O[C@@H](n2cc(C)c(=O)[nH]c2=O)C[C@@H]1O,11%,0%
Cc1csc(=O)n1CCC(=O)OC(C)C(=O)NCc1ccccc1 (configuration not stated),-13%,-1%
COc1ccc(OC(=O)N(C)C)c(CN(C)C)c1,.,-14%
O=C(COc1ccc(F)cc1)NCc1ccc2c(c1)CCN2C(=O)c1ccccc1,i,-7%
Oc1ccc(/C=N/Nc2cc(N3CCOCC3)nc(N3CCOCC3)n2)cc1,-19%,-26%
Cc1nn(-c2ccccc2)c(-c2ccccc2[N+](=O)[O-])c1CC#N,42%[activator],-8%
O=C(CSc1nnc(SCc2ccc(Cl)cc2)s1)N/N=C/c1ccccc1Cl,?,-12%
Cc1ccc(C)c(-n2nnc(C(=O)Nc3ccc(Br)cc3)c2C)c1,-30%,-19%
CCOC(=O)C1CCCN(Cc2ccccc2F)C1 (configuration not stated),-13%,-12%
COc1cc(C(=O)OCC(=O)N2CCCC2)cc(OC)c1OC,.,-8%
CC(C)n1cc(C#N)c(N)n1,i,1%
CCOc1cc(C2C(C(C)=O)=C(O)C(=O)N2CCc2c[nH]c3ccccc23)ccc1O (configuration not stated),i,-11%
O=C(CC1C(=O)OCCN1Cc1ccccc1)Nc1ccc(F)cc1 (configuration not stated),-10%,-1%
CN(C)S(=O)(=O)c1ccc2c(c1)N(CC(=O)N1CCN(c3ccc(F)cc3)CC1)CCS2,-10%,-2%
Cc1ccc2cc(CCNC(=O)C3CCCCC3)c(=O)[nH]c2c1C,i,-12%
Cc1ccccc1C(=O)NC(C)c1nnc2n1CCN(Cc1ccccc1F)CC2 (configuration not stated),i,0%
CC1([N+](=O)[O-])COC2(OC1)C(=O)Nc1ccccc12 (configuration not stated),i,-11%
CCCCNc1c(-c2ccc(SC(C)CC)c(OC)c2)nc2ccc(Cl)cn12 (configuration not stated),-5%,-11%
Cc1ccnc2nc(C(=O)Nc3nc(-c4ccccn4)cs3)nn12,-12%,2%

# A section taken from the entries so far, for reference:
SMILES,VACV mCherry inh,Vaccinia Venus
O=C(COc1ccc(F)cc1)NCc1ccc2c(c1)CCN2C(=O)c1ccccc1,i,-7%
Oc1ccc(/C=N/Nc2cc(N3CCOCC3)nc(N3CCOCC3)n2)cc1,-19%,-26%
Cc1nn(-c2ccccc2)c(-c2ccccc2[N+](=O)[O-])c1CC#N,42%[activator],-8%
O=C(CSc1nnc(SCc2ccc(Cl)cc2)s1)N/N=C/c1ccccc1Cl,?,-12%
Cc1ccc(C)c(-n2nnc(C(=O)Nc3ccc(Br)cc3)c2C)c1,-30%,-19%
CCOC(=O)C1CCCN(Cc2ccccc2F)C1 (configuration not stated),-13%,-12%
COc1cc(C(=O)OCC(=O)N2CCCC2)cc(OC)c1OC,.,-8%
CC(C)n1cc(C#N)c(N)n1,i,1%
CCOc1cc(C2C(C(C)=O)=C(O)C(=O)N2CCc2c[nH]c3ccccc23)ccc1O (configuration not stated),i,-11%
O=C(CC1C(=O)OCCN1Cc1ccccc1)Nc1ccc(F)cc1 (configuration not stated),-10%,-1%
CN(C)S(=O)(=O)c1ccc2c(c1)N(CC(=O)N1CCN(c3ccc(F)cc3)CC1)CCS2,-10%,-2%
Cc1ccc2cc(CCNC(=O)C3CCCCC3)c(=O)[nH]c2c1C,i,-12%
Cc1ccccc1C(=O)NC(C)c1nnc2n1CCN(Cc1ccccc1F)CC2 (configuration not stated),i,0%
CC1([N+](=O)[O-])COC2(OC1)C(=O)Nc1ccccc12 (configuration not stated),i,-11%
CCCCNc1c(-c2ccc(SC(C)CC)c(OC)c2)nc2ccc(Cl)cn12 (configuration not stated),-5%,-11%
Cc1ccnc2nc(C(=O)Nc3nc(-c4ccccn4)cs3)nn12,-12%,2%

# New compounds follow
SMILES,VACV mCherry inh,Vaccinia Venus
COC(=O)[C@]12CCCCC=C1N(Cc1ccco1)C(=O)[C@H](CC(=O)NCCC(C)C)C2,9%,-8%
COC(=O)c1c(-c2c(Cl)cccc2Cl)noc1NC(=O)N(C)C,-6%[7.34 µM],1%[7.34 µM]
Cc1cccc(C)c1OCc1cc(C(=O)N(C)Cc2cc(C3CC3)n[nH]2)no1,-17%,-19%
CN(CC(=O)Nc1ccc(F)cc1)C(=O)COC(=O)CCN1C(=O)C2CC=CCC2C1=O (configuration not stated),-12%,-4%
CC(C)CCNC(=O)c1cccnc1Sc1ccccc1,0%,-10%
COc1ccc(NC(C)=O)cc1S(=O)(=O)N1CCc2ccccc21,0%,-2%
CCCn1nnnc1SCC(=O)c1ccc2c(c1)OCCO2,-18%,-10%
COc1ccccc1N(C)S(=O)(=O)c1ccc(C(=O)NC2CCCCC2)cc1,-5%,-5%
Cc1ccc(NC(=O)C2CCN(c3nc4ccccc4[nH]3)CC2)c(C)c1,-9%,-12%
CCOc1ccccc1NC(=O)C1CCN(c2nc(-c3ccc(OC)cc3)no2)CC1,i,-22%
Cc1c(CNC(C)CCc2ccccc2)c(C(=O)O)c(C)n1Cc1ccc(F)cc1 (configuration not stated),-5%,-15%
N#Cc1ccc(/C=N/NC(=S)Nc2ccc(S(=O)(=O)N3CCOCC3)cc2)cc1,-11%,12%
CCCCCn1nc(-c2ccccc2)c2nc3ccccc3nc21,-7%,2%
CCOC(=O)Cc1cc(-c2ccc(F)cc2)nc2ccc3ccccc3c12,-7%,-7%
N#CC1(NC(=O)COC(=O)c2cc(=O)[nH]c3ccccc23)CCCCC1,i,-12%
CC(CO)NS(=O)(=O)c1ccc(Br)cc1F (configuration not stated),?,-11%
O=C(CCC1CCN(C(=O)c2cncs2)CC1)Nc1ccccc1,-9%,-17%
CCOc1ccc(S(=O)(=O)NCCc2csc3nc(-c4ccc(OC)c(OC)c4)nn23)cc1,-8%,-10%
CCc1ccc(CNC(=O)c2cccc(-n3cnc4cccnc43)c2C)cc1,-8%,-8%
COCc1cc(C)n(CC(=O)Nc2cc(C)cc(C)c2)c(=O)c1C#N,i,-10%
COc1ccccc1CNC(=O)COC(=O)Cc1ccc(F)cc1,-2%,-18%
Cc1ccc(S(=O)(=O)/N=C(/Nc2c(C)n(C)n(-c3ccccc3)c2=O)c2ccccc2)cc1,-15%,-7%
CCOC(=O)N1CCN(C(=O)CS(=O)(=O)c2cn(Cc3ccccc3Cl)c3ccccc23)CC1,i,-12%
S=C(NCCc1ccccc1)N1CCN(C23CC4CC(CC(C4)C2)C3)CC1,-21%,-6%
CCOC(=O)C1CC2=C(CCCC2=O)N(Cc2ccccc2)C1=O (configuration not stated),0%,2%
CN(/C(=N/S(=O)(=O)c1ccccc1)c1ccccc1)S(=O)(=O)c1ccccc1,i,-10%
COc1ccc(-n2nc(C(=O)NCC(=O)N3CCC(C)CC3)c3ccccc3c2=O)cc1,-15%,-11%
CC(C)(C)c1ccc(C(=O)C=[N+]=[N-])cc1,.,4%
CN=C1SC(CC(=O)NCCc2ccc(OC)c(OC)c2)C(=O)N1C (configuration not stated),-10%&-19%,7%&-10%
COC(=O)C(F)(Sc1c(C)n(C)n(-c2ccccc2)c1=O)C(F)(F)F (configuration not stated),i,-1%
CCC(=O)N1CCc2cc(Br)cc(S(=O)(=O)N3CCN(c4cccc(Cl)c4)CC3)c21,-29%,-26%
CC(C)(C)CC(C)(C)N=C1NS(=O)(=O)c2cc([N+](=O)[O-])ccc21,-1%,-12%
C[C@]1(C2CCCC2)Cc2cc(OCC(=O)O)c(Cl)c(Cl)c2C1=O,i,-13%
Cc1nn(Cc2ccccc2)c(C)c1NC(=O)c1ccc([N+](=O)[O-])cc1[N+](=O)[O-],?,?
CCOC(=O)c1c(S(=O)(=O)N2CCCC(C(=O)NCc3ccc(F)cc3)C2)c(C)n(CC)c1C (configuration not stated),-13%,-10%
O=C(Cc1ccc(S(=O)(=O)N2CCOCC2)s1)Nc1ccc(Br)c(C(F)(F)F)c1,-17%,?
COc1ccc(C2(C)NC(=O)N(CC(=O)NC3CC3)C2=O)cc1 (configuration not stated),-18%,5%
COc1ccc(CCNC(=O)CC2SC(=NCc3ccccc3)NC2=O)cc1 (configuration not stated),i,0%
Cc1ccc(OCC(=O)NCCNC(=O)c2ccco2)cc1,-10%,7%
CCOc1ccc(Nc2cc(C)nc(N3CCOCC3)n2)cc1,.,-14%
Cc1cc(C)c2c(c1)OC(O)(C(F)F)CC2=O (configuration not stated),-11%,-9%
O=C(NCCN1CCN(C(=O)c2c(F)cccc2F)CC1)C(=O)Nc1ccc(Cl)cc1,-16%,?
Cc1cc(NC(=O)COc2ccccc2)cc(-c2nc3ccccc3o2)c1O,-6%,-2%
COc1ccc(C2NS(=O)(=O)N=C2N)cc1 (configuration not stated),-1%,-8%
O=C(CC1Nc2ccccc2NC1=O)NCCc1ccccc1 (configuration not stated),-19%,-9%
CCOC(=O)c1ccc(CSc2nnc3cc(C)c4ccccc4n23)cc1,-1%,-11%
Cc1cc(NC(=O)C(C)SCC(=O)O)no1 (configuration not stated),-12%,-5%
Cc1ccc(O)c(NC(=S)NC(=O)Cc2ccc(Cl)cc2)c1,?,1%
COc1cccc(CN(CC(=O)NC2CCCC2)C(=O)CCC(=O)Nc2cc(C)on2)c1,-22%,-9%
CC(=O)Nc1ccc(C(=O)OCc2ccc(F)cc2)cc1,-6%,0%
CCOc1ccccc1C(=O)OCC(=O)NCC1CCCO1 (configuration not stated),-16%,-16%
CC(=O)c1cc(-c2ccccc2)n(CCC(=O)NC2CCC(C)CC2)c1C (configuration not stated),-8%,-6%
CC(NC(=O)c1cc(S(=O)(=O)N(C)C)ccc1N1CCCC1)C1CC2CCC1C2 (configuration not stated),-6%,-3%
CN(c1cccc(Cl)c1)S(=O)(=O)c1cccc(C(=O)NC2=NCCS2)c1,-14%,?
O=C1NC(=S)SC1=Cc1ccccc1Cl,-10%,-7%
O=C(/C=C/c1ccccc1Cl)NCCCn1ccnc1,i,-19%
CCc1ccc(Nc2n[n+](-c3ccccc3)c(-c3ccc(SC)cc3)s2)cc1,-13%,-30%
CC(C)(C)[C@@H]1C=C(C(=O)NCc2ccccc2)O[C@H](OCc2ccc(CO)cc2)C1,i,-18%
Cc1ccc(-c2nnc(N3CCCCCC3)c3ccccc23)cc1,-13%,-19%
COc1ccccc1N1CCN(S(=O)(=O)CCNC(=O)CCCc2ccccc2)CC1,?,-5%
Cc1ccc(C(=O)NCCc2nc3ccccc3[nH]2)cc1[N+](=O)[O-],i,-12%
COc1ccc(NC(=O)CSc2nc3ccccc3n2Cc2cccc(OC)c2)cc1,-8%[7.34 µM],-2%[7.34 µM]
CC(=O)Nc1cccc(-c2ccnc3c2CC(C)(C(=O)NCc2cccc(Cl)c2)O3)c1 (configuration not stated),-25%,?
